LT uptake inh = qHTS Assay for Anthrax Lethal Toxin Internalization; Cells, anthrax lethal toxin internalization, FRET ratio (460/530); actives 0.67% (n = 70,000); Potency, µM (titrated, usually from 40 µM), for the others: top-dose activity change, negative = inhibition, actives largely listed as inhibitors; active = well fitted falling ratio curve with the 530 nm signal flat; inconclusive = other ratio curves, or a change in one channel alone; inactive = flat curves in the ratio and both channels; the % refers to the ratio; note: % is set by controls: 0 for no effect and ±100 for the full control effect; nearly all actives have a fitted effect of over 50% in size; tested in ME-180 cells; beta-lactamase reporter
SmPrx2 inh = Schistosoma Mansoni Peroxiredoxins (Prx2); Schistosoma mansoni peroxiredoxin 2 (Prx2); S. mansoni Prx2 activity coupled to TGR/GSH (TGR is thioredoxin glutathione reductase), NADPH fluorescence loss, qHTS; some inactives read as strong as hits; Potency, µM; actives 0.07% (n = 65,000); AID 448, 2006; active means full or partial inhibition curve with a strong effect at the top dose; inconclusive means weaker partial or single-point curve; inactive means no accepted curve; note: series up to 57 µM; many of its hits are not listed in these tables
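Coupled assay in which S. mansoni TGR passes NADPH reducing equivalents via glutathione to Prx2, which reduces H2O2. Compounds were preincubated 15 min at room temperature with 25 nM TGR/50 nM Prx2 mix. Kinetic NADPH fluorescence loss (ex 365/em 450 nm) was monitored.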
Numbers without * were called inactive; ? = inconclusive; · = not tested or not shown; & = joins results of further samples; [ ] = another dose, or the depositor's remark. Potency is the fitted concentration of half-maximal effect. Not all compounds are listed; the hit share may differ from the screen's.

SMILES	LT uptake inh	SmPrx2 inh
CCOC(=O)C1CCCN(C(=O)C2CCC(CNS(=O)(=O)c3ccc(NC(C)=O)cc3)CC2)C1 (configuration not stated)	-2.0%	>57
COc1ccc(CN2CCOCC2)c(C)c1C	?	>57
C/C(CCN1CCCc2nc(C)c(C)cc21)=N\O[C@@H](C)CN1CCCc2nc(C)c(C)cc21	8.1%[0.32 µM]	·
CCCOc1ccc2[nH]cc(C(=O)O)c(=O)c2c1	-7.5%	>57
Cc1nn2c(CN(C(=O)c3ccco3)c3ccccc3)nnc2c2ccccc12	15.1%	>57
CCN1CCN(C(=O)c2nn(-c3ccc(C)cc3)c(=O)c3c2c2ccccc2n3C)CC1	-11.7%	>57
CN(Cc1ccco1)c1cc(-c2ccoc2)ncn1	-13.9%	>57
COC(=O)c1cc2ccsc2n1Cc1nc(-c2ccc(OC)cc2)oc1C	-26.7%	>57
CCN(CC)C(=O)CN(c1cc(Cl)ccc1OC)S(C)(=O)=O	?	>57
C=CCn1c(O)c(C(C)=NC2CC2)c(=O)[nH]c1=O	-2.9%	>57
O=C1c2ccccc2C(Nc2ccc(S(=O)(=O)N3CCOCC3)cc2)N1c1cccnc1 (configuration not stated)	?	>57
O=S(=O)(c1cccc(Cl)c1Cl)N1CCCCC1	-23.0%	>57
CCCCSc1nnc([C@H](C)NC(=O)OC(C)(C)C)o1	0.0%	>57
COc1cc(NC(=O)CN(c2ccc(C)cc2)S(=O)(=O)c2c(C)nn(C)c2C)cc(OC)c1	?	>57
O=C1CS/C(=C\S(=O)(=O)c2ccc(Cl)cc2)N1	?	>57
COCc1nc2c([nH]1)c(=O)n(C)c(=O)n2CC(C)C	?	>57&>57
Cc1ccnc(NS(=O)(=O)c2cccc3nsnc23)c1	·	>57
Cc1ccc2cc(C)c(NCCO)nc2c1	4.0%	>57
Cc1ccc(O)c(C)c1	?	·
Cc1ccn(CC(=O)O)c(=O)c1	?	>57
CSc1nnc2c(n1)OC(c1cn(C)c3ccccc13)N(C(C)=O)c1ccccc1-2 (configuration not stated)	-13.1%	>57
O=C(/N=C1\NC(=O)C(F)(C(F)(F)F)S1)NC1CCCCC1 (configuration not stated)	2.8%	·
COC(=O)c1c(NC(=O)CSc2nnnn2-c2ccccc2)sc2c1CCC(C)C2 (configuration not stated)	-6.9%	>57
CCC1(C)Cc2c(sc3nc4n(c(=O)c23)CCCS4)CO1 (configuration not stated)	·	>57
CCN(Cc1ccccc1)C(=O)c1ccccc1C	-3.5%	>57
Cc1ccc(Cn2c(SCCN3CCCCC3)nc3c2c(=O)[nH]c(=O)n3C)cc1	-16.4%	>57
CC12CC[C@@H]3c4ccc(OP(=O)(O)O)cc4CCC3C1CCC2=O (some centres not stated)	-7.1%[8 µM]	>57
Cc1cccc(-n2c(N)c(C(=O)N3CCN(C)CC3)sc2=S)c1	-3.4%	>57
CCCC(=O)N1CC2(C)CN(C(=O)CCC)CC(CCC)(C1)C2=O	-5.0%	>57
Cc1cccc(Nc2nn3c(=O)c4ccccc4nc3s2)c1	10.4%	>57
O=C1CC(SC(=NCc2ccc3c(c2)OCO3)Nc2ccccc2)C(=O)N1 (configuration not stated)	-9.3%	·
O=C1[C@H]2[C@H]3[C@H](O)[C@H](O)C/C(=N/OCc4ccccc4)[C@H]3CC[C@@H]2C(=O)N1C1CCCCC1	-7.1%[1.6 µM]	·
Cc1ccnc(NC(=O)COC(=O)C2COc3ccccc3O2)n1 (configuration not stated)	?	>57
OC(Cc1ccccc1)(Cc1ccccc1)c1ccccc1	-10.0%[8 µM]	>57
CCC(c1nc2ccccc2c(=O)n1CCCn1ccnc1)N1C(=O)c2ccccc2C1=O (configuration not stated)	-4.1%	>57
CC(C)(C)C(=O)NC(c1ccc(Cl)cc1)[C@]1(C)C[C@H]1C1CCCCC1 (some centres not stated)	?	>57
CCC(=O)N1CCc2cc(S(=O)(=O)CCC(=O)Nc3ccc(F)c(F)c3)ccc21	-3.7%	>57
Cc1cc(-c2nc3ccccc3o2)c2ccccc2n1	·	>57
Cc1ccc(C(=O)Cn2c(N3CCOCC3)nc3c2c(=O)n(C)c(=O)n3C)cc1	2.7%	>57
COc1cccc(NC(=O)COc2ccccc2C(N)=O)c1	-7.6%	>57
CCOC(=O)c1[nH]c2ccc(OC)cc2c1NC(=O)CN1CCC2(CC1)OCCO2	19.3%	>57
COc1ccc(CC(C(=O)Nc2cccc(F)c2)c2nn[nH]n2)c(OC)c1 (configuration not stated)	4.9%	>57
Fc1ccc(-c2cc3nc(-c4ccccc4)cc(N4CCN(CCN5CCOCC5)CC4)n3n2)cc1	?	>57
O=C(CCNS(=O)(=O)c1ccc2c(c1)CCC(=O)N2)NCc1cccnc1	8.4%	>57
COc1cccc(C2c3c(oc4ccccc4c3=O)C(=O)N2CCCN(C)C)c1OC (configuration not stated)	4.0%	>57
Cn1c(Cn2c(=O)sc3ccccc32)nnc1SCC(=O)Nc1ccc2c(c1)OCO2	-3.0%	>57
CCN(CC)S(=O)(=O)c1cccc(C(=O)Nc2ccc(C#N)cc2)c1	-11.0%	>57
Nc1nnc(CC(=O)N2CCCCC2)s1	0.3%	>57
CCC1Oc2ccc(C)cc2N(CC(=O)NCCN2C(C)CCCC2C)C1=O (configuration not stated)	-9.9%	>57
CC(C)n1cc(/C=C(\C#N)S(=O)(=O)c2ccccc2)c2ccccc21	?	>57
CCOC(=O)c1[nH]c(C)c(C(=O)NCc2ccccn2)c1C	10.0%	>57
Cc1ccc(C)c(NC(=O)c2nnn(Cc3ccccc3)c2N)c1	-8.4%	>57
COc1cccc(C2c3c(oc4ccccc4c3=O)C(=O)N2CCCN2CCOCC2)c1OC (configuration not stated)	?	>57
COC(=O)C/C=C/C(C)C(OCc1cccc(Br)c1)C(C)C(OC)C1CCCCC1 (configuration not stated)	-6.4%[8 µM]	·
CC1CC(C)CN(CCC(=O)Nc2cccc(Cl)c2)C1 (configuration not stated)	-1.8%	>57
CCn1c(SCC(=O)Nc2cc3oc4ccccc4c3cc2OC)nnc1-c1cccs1	-6.8%	>57
CC(=O)OC[C@@H]1O[C@@H](O/N=C2/C[C@@H](O)[C@@H](O)[C@@H]3[C@@H]4C(=O)N(C[C@@H]5CCCO5)C(=O)[C@H]4CC[C@H]23)[C@H](OC(C)=O)[C@H](OC(C)=O)[C@@H]1OC(C)=O	-0.1%[8 µM]	·
Cc1ccc(OCC(=O)Nc2ccc(S(=O)(=O)Nc3onc(C)c3C)cc2)cc1	0.0%	>57
Cc1ccc(-c2c3c(=O)n(C)c(=O)n(C)c3cn2N2CCOCC2)cc1	?	>57
Cc1ccc(C(N)=O)cc1S(=O)(=O)Nc1cccc(C)c1C	-4.6%	>57

Pulled by structure from the entries so far:
SMILES	LT uptake inh	SmPrx2 inh
CSc1nnc2c(n1)OC(c1cn(C)c3ccccc13)N(C(C)=O)c1ccccc1-2 (configuration not stated)	-13.1%	>57
COCc1nc2c([nH]1)c(=O)n(C)c(=O)n2CC(C)C	?	>57&>57

Other results.
SMILES	LT uptake inh	SmPrx2 inh
Cc1cccc(C)c1NC(=O)CNc1ccccc1	-13.7%	>57
CCN(C(=O)COC(=O)c1cc(C)n(-c2ccc(F)cc2)c1C)C1CCS(=O)(=O)C1 (configuration not stated)	-13.6%	>57
CCOc1ccc(C(C)=O)cc1N1C(=O)C2C3C=CC(C3=C(C)C)C2C1=O (configuration not stated)	-8.4%	>57
O=C1OCCC1Sc1nc(-c2ccccc2)cs1 (configuration not stated)	-20.5%	>57
O=c1ccsn1Cc1ccccc1	?	>57
O=C(CSc1nc2ccccc2[nH]1)Nc1ccc2c(c1)OCCO2	-9.9%	>57
Cc1ccc(N2CCN(C(=O)C3CCN(S(=O)(=O)c4cccc5nsnc45)CC3)CC2C)cc1 (configuration not stated)	10.0%	>57
CC[C@@](O)(C(=O)O)c1cc2n(c(=O)c1CO)Cc1cc3ccccc3nc1-2	-7.6%[8 µM]	>57
COc1ccc(-c2cc(C(F)(F)F)n3nc(C(=O)N4CCOCC4)nc3n2)cc1	-4.1%	>57
CCC(CO)NCc1ccc2c(c1)n(C)c(=O)n2C (configuration not stated)	·	>57
CC1CCN(S(=O)(=O)N2CCC(C(=O)NCc3cccs3)CC2)CC1	?	>57
C=CCOc1ccccc1C1C2=C(CC(C)(C)CC2=O)Nc2c1c(=O)n(C)c(=O)n2C (configuration not stated)	?	>57
CCN(CC)c1ccc2c(c1)oc(=O)c1c(Cl)cc(=O)oc12	?	>57
CCc1nnc(NC(=O)CSc2nc3cccnc3n2C2CCCCC2)s1	4.5%	>57
COCCCNC(=O)Cn1nnc(-c2ccccc2NC(=O)c2ccccc2F)n1	-2.1%	>57
S=c1[nH]nc(-c2ccco2)n1-c1cccc2ccccc12	9.0%	?
CS(=O)(=O)N1CCN(C(=O)c2ccccc2F)CC1	10.2%	>57
COc1ccccc1CNC(=O)CN1CCN(Cc2ccc(Cl)cc2)C1=O	-8.1%	>57
CC(=O)NCCn1c(SCC#N)nc2ccccc2c1=O	?	>57
COC(=O)c1c(-c2cccc(OC)c2)csc1N	?	>57
COC(=O)/C=c1/s/c(=C(\C#N)C(=O)NCc2ccco2)n(-c2ccc(C)cc2)c1=O	5.0%	>57
Cc1cc(C)c(C)c(S(=O)(=O)NCC(=O)N2CCCC2)c1C	·	>57
Cc1cnc(CNc2ncncc2-c2ccccc2C#N)cn1	-0.9%	>57
CC1(C)S[C@@H]2[C@H](NC(=O)C3(N)CCCCC3)C(=O)N2[C@H]1C(=O)O	-12.4%[3.58 µM]	>57
CN1CCN(CCCNC(=O)C2CCN(c3nnc(-n4cccc4)s3)CC2)CC1	-10.0%	>57
CN(C)CCNC(=O)c1ccc2c(c1)N(Cc1ccc(F)cc1)CCS2	?	>57
Nc1ccc2c(c1)C(=O)N(CCCC(=O)O)C2=O	-4.7%	>57
CCOc1cc(C)c(C(C)C)cc1S(=O)(=O)N1CCOCC1	-9.4%	>57
COc1ccc2cc3cc(C(=O)Nc4ccc5c(c4)OCCO5)oc3nc2c1	1µM*	>57
O=C(O)C1C2C=CC(C2)C1C(=O)OC1CC2CCC1C2 (configuration not stated)	0.2%	>57
COC(=O)CSc1nc2ncc(Cl)cc2[nH]1	-5.0%	>57
CC(=O)NC(CCS(C)(=O)=O)C(=O)Nc1ccc(C)c(F)c1 (configuration not stated)	13.2%	>57
CCc1ccc(N2CSC3=C(C#N)C(c4cccs4)CC(=O)N3C2)cc1 (configuration not stated)	-28.8%	>57
O=C(CCn1cccc1)NCc1ccc(Cl)cc1	3.3%	>57
O=C(CCS(=O)(=O)c1ccc(Br)s1)NCc1cccs1	-12.1%	>57
CCCCN(CCCC)C(=O)CCS(=O)(=O)c1ccc2c(c1)n(C)c(=O)c(=O)n2C	-5.9%	>57
Cn1cc(C(=O)NC2CCCCC2)c(=O)c2cc(S(=O)(=O)N3CCCC3)ccc21	-2.9%	>57
CCOC(=O)CN(C(=O)CNC(=O)c1ccco1)C(C(=O)NC1CCCCC1)c1cccc(OC)c1 (configuration not stated)	1.9%	>57
CCCCC(=O)Nc1ccc(C(=O)Nc2ccc3c(c2)OCO3)cc1	-0.3%	>57
CC1CC(C)(C)CC2(C1)NC(=O)N(CC(=O)NCC(c1ccco1)N1CCCCC1)C2=O (configuration not stated)	2.3%	>57
COc1ccccc1NC(=O)C1=C(C)NC(=O)NC1c1ccc(C)cc1 (configuration not stated)	19.6%	>57
Cc1ccc(CC2C(=O)N(c3ncccn3)C(=O)C2C)cc1 (configuration not stated)	-11.8%	>57
Cc1cc(NC(=O)c2cc(Cl)ccc2Cl)no1	-9.8%	>57
Cc1ccc(-c2nnc(SC(C)C#N)n2N)cc1 (configuration not stated)	2.5%	>57
Cc1cc(C)n(-c2nc(C)nc3c2cnn3-c2ccccc2)n1	-0.2%	>57
COc1ccccc1-n1c(SCC(=O)Nc2nnc(C)s2)nc2c(c1=O)SCC2	-10.2%	>57
Fc1ccccc1Cn1nnc2c(NCc3ccccn3)ncnc21	4.5%	>57
NC(=O)C1CCN(C(=O)CSCc2ccccc2Cl)CC1	-5.5%	>57
COCCNc1ncncc1-c1ccccc1OC	-2.8%	>57
C[N@+]1(CCC(=O)c2ccccc2)CC[C@H]2CC[C@H](C2)C1	-0.5%[8 µM]	>57
COc1cc2c(OC)cccc2cc1C(=O)O	0.0%	>57
CCCCNc1ncnc2c1cnn2-c1ccc(C)cc1C	-22.2%	>57
Brc1ccc(Nc2c3c(nc4ncnn24)CCC3)cc1	?	>57
O=C(Nc1ccncc1)c1cncc(Br)c1	8.0%	>57
COc1ccc(-c2nc(CSCC(=O)N3CCC4(CC3)OCCO4)c(C)o2)cc1OC	4.9%	>57

Structures listed so far that have a COOH group, in the order listed:
SMILES	LT uptake inh	SmPrx2 inh
CCCOc1ccc2[nH]cc(C(=O)O)c(=O)c2c1	-7.5%	>57
Cc1ccn(CC(=O)O)c(=O)c1	?	>57
CC[C@@](O)(C(=O)O)c1cc2n(c(=O)c1CO)Cc1cc3ccccc3nc1-2	-7.6%[8 µM]	>57
CC1(C)S[C@@H]2[C@H](NC(=O)C3(N)CCCCC3)C(=O)N2[C@H]1C(=O)O	-12.4%[3.58 µM]	>57
Nc1ccc2c(c1)C(=O)N(CCCC(=O)O)C2=O	-4.7%	>57
O=C(O)C1C2C=CC(C2)C1C(=O)OC1CC2CCC1C2 (configuration not stated)	0.2%	>57
COc1cc2c(OC)cccc2cc1C(=O)O	0.0%	>57

Bioassay records as filed in PubChem.
